# YopH inh = blocks Yersinia enterocolitica YopH tyrosine phosphatase; fluorescence Ex485/Em525; inhibition, %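 (about 10 µM by stock and volumes)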; actives 0.16% (n = 140,000);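 active means inhibition of 50% or more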;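 further: controls were vehicle for no effect and minimum signal wells for full effect; inactives centre near -20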
# Mtb betalactam = beta-lactam sensitization of Mtb H37Rv; M. tuberculosis H37Rv growth with meropenem, percent inhibition; hits of this screen are not shown here; inhibition, % at 25 µM; actives 0.27% (n = 330,000);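 active means about 74% or more and at least 40 points above the plate without the antibiotic, then above 30% in a dose series; inconclusive means first-round hits that could not be retested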;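 further: growth measured after seven days incubation then overnight dye step; 0% = bacteria only wells and 100% = bacteria with antibiotic; twin plates without the antibiotic show which effects depend on it; some results filed as inactive read as strong as hits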
# RecA intein inh = blocks M. tuberculosis RecA intein splicing; actives 0.75% (n = 290,000); P9WHJ3; cell-free RecA intein splicing, fluorescence; inhibition, %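 (about 9 µM by stock and volumes)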; in the data active means inhibition above about 30%; inconclusive means no clear call, values can overlap the other calls;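 further: 0% = vehicle wells and 100% = reference inhibitor control wells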
# Target sequence (P9WHJ3 whole entry, looked up): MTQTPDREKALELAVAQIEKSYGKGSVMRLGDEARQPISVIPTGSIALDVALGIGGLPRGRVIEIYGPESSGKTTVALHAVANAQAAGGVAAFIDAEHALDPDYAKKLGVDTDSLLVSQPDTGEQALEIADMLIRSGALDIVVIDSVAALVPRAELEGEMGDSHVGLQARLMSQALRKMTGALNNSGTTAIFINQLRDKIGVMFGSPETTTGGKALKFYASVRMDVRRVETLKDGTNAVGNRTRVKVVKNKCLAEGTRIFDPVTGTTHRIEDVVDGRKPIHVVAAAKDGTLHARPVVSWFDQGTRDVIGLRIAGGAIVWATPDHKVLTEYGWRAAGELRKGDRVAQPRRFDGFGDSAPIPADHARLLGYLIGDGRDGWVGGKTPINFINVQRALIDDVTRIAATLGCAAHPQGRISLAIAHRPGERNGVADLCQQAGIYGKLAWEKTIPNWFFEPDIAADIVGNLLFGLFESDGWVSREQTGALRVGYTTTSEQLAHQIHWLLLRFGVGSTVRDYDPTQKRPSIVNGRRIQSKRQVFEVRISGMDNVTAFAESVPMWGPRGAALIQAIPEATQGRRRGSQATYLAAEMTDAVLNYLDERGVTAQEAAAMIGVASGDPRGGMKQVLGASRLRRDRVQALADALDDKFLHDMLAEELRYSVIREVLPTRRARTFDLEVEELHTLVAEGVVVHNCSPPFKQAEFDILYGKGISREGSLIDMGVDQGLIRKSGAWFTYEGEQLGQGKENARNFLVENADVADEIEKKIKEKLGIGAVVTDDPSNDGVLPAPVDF
# Arbovirus anti = blocks arbovirus infection; inhibition, % at 10 µM; actives 0.37% (n = 200,000); arbovirus infection cell-based antiviral screen;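 active means inhibition from about 30%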;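 further: bluetongue infection of BSR cells; cell survival read as ATP light after 72 h; 0% = infected wells without compound and 100% = uninfected wells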
# Mtb growth = M. tuberculosis H37Rv growth inhibitors, H37Rv strain (AID 1626) | M. tuberculosis H37Rv growth inhibition; higher % means a stronger effect | inhibition, % at 10 µM, or IC50 in µM where a hit was titrated | actives 0.95% (n = 220,000);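 active means confirmed in a dose series; inconclusive means inhibition above 80% but not taken into the dose series; inactive means below 80% or under 30% at every dose of the series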;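 further: bacteria incubated seven days before Alamar blue readout; 0% = bacteria only wells and 100% = bacteria with antibiotic wells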
# Arbovirus anti repeat = also measured in Arbovirus anti; calls as there; inhibition, %; measured here: 10K subset replicate screen; many hits read low in the repeat;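 first of two repeat runs on a subset; 0% = infected and 100% = uninfected wells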
# Starred values were filed as active, the others as inactive; ? = inconclusive; · = not tested or not shown. Only part of the results is shown; the hit share may differ from the screen's.
# Preview:
SMILES,YopH inh,Mtb betalactam,RecA intein inh,Arbovirus anti,Mtb growth,others
CCOC(=O)c1c(NC(=O)Cn2cnc3scc(-c4ccc(C)cc4)c3c2=O)sc(C)c1C,-17,5,-0.4,0,-5%,
COC(=O)C1=C(C(=O)OC)[C@@H]2N(C)c3ccc(OC)cc3[C@@]23C[C@@H](C(=O)OC)N(C(=O)NC2CCCCC2)C3=N1,·,-4,2.2,·,9%,
Cn1c(=O)c2c(nc(NCCO)n2CCc2ccccc2)n(C)c1=O,·,1,-1.5,1,-5%,
CCCN1CCN(CCCNC(=O)Cn2nc(-c3ccc(C)cc3)ccc2=O)CC1,-35,-8,-0.2,0,-5%,
Cc1cccc(C(=O)NNS(=O)(=O)c2ccccc2)c1O,·,3,-11,5,0%,
CCCN1CCN(C(=S)Nc2ccc(SC(F)F)cc2)CC1,·,-6,1.9,13,-6%,
CCc1nnc(NC(=O)COc2ccc([N+](=O)[O-])cc2)s1,·,0,0.4,-2,2%,
O=C(COc1ncnc2ccc(Br)cc12)NCc1ccc2c(c1)OCO2,-6,20,-0.7,-5,-1%,
NN=C(c1cccc([N+](=O)[O-])c1)c1cccc([N+](=O)[O-])c1,·,-8,0.3,·,·,
O=C(O)/C=C/c1cnc2ccccc2c1,·,-7,-0.5,7,3%,
COc1ccc(-n2c(Cc3cccn3C)nnc2SCC(=O)Nc2ccc3c(c2)OCCO3)cc1,-44,-2,4.4,11,5%,Arbovirus anti repeat=9
Cc1ccccc1CN1CCN(C(=O)c2cc(-c3ccncc3)nc3ccccc23)CC1,·,6,6.0,·,·,
Fc1ccc(-n2cc(CNCCc3ccccn3)c(-c3ccccc3Cl)n2)cc1,·,89,0.3,-9,23%,
CN1C(=O)/C(=N\OC(=O)c2cccc3ccccc23)c2ccccc21,-28,15,38*,7,-8%,
O=c1c(-c2ccc(O)cc2)coc2c(C3O[C@H](CO)[C@@H](O)[C@H](O)[C@H]3O)c(O)ccc12 (stereo partly drawn),·,-6,-6.6,·,·,
CCCOc1ccccc1Cn1c(=O)oc2ccccc21,·,-5,2.5,·,·,
NS(=O)(=O)c1ccc(N/C=C/C(=O)c2ccc(Br)cc2)cc1,-24,10,-9.1,11,7%,
CCc1ccc(NC(=O)CSC2=C(C#N)C(c3ccco3)C3=C(CCCC3=O)N2)cc1 (stereo not drawn),1,38,8.9,-17,11%,
COC1=CC(=O)CC(C)C12Oc1cc(OC)cc(OC)c1C2=O (stereo not drawn),·,0,5.6,·,-7%,
O=C(CN1CCOCC1)Nc1ccc(OC(F)(F)F)cc1,·,-5,0.0,·,·,
Cc1c(C)c2ccc(OCC(=O)N[C@@H](Cc3ccccc3)C(=O)O)cc2oc1=O,·,2,3.6,·,·,
O=C(NCc1ccc(Cl)cc1)C1CCCN1C(=O)Nc1ccc(F)cc1 (stereo not drawn),·,-7,-1.0,·,·,
COc1ccc(CN(C)CC(O)COc2ccc(C(=O)c3ccccc3)cc2)c(OC)c1OC (stereo not drawn),·,90,1.2,·,·,
Fc1ccc(CNCc2ccc3c(c2)OCO3)cc1,·,1,0.4,·,·,

# The whole of this part, repeating the preview:
SMILES,YopH inh,Mtb betalactam,RecA intein inh,Arbovirus anti,Mtb growth,others
CCOC(=O)c1c(NC(=O)Cn2cnc3scc(-c4ccc(C)cc4)c3c2=O)sc(C)c1C,-17,5,-0.4,0,-5%,
COC(=O)C1=C(C(=O)OC)[C@@H]2N(C)c3ccc(OC)cc3[C@@]23C[C@@H](C(=O)OC)N(C(=O)NC2CCCCC2)C3=N1,·,-4,2.2,·,9%,
Cn1c(=O)c2c(nc(NCCO)n2CCc2ccccc2)n(C)c1=O,·,1,-1.5,1,-5%,
CCCN1CCN(CCCNC(=O)Cn2nc(-c3ccc(C)cc3)ccc2=O)CC1,-35,-8,-0.2,0,-5%,
Cc1cccc(C(=O)NNS(=O)(=O)c2ccccc2)c1O,·,3,-11,5,0%,
CCCN1CCN(C(=S)Nc2ccc(SC(F)F)cc2)CC1,·,-6,1.9,13,-6%,
CCc1nnc(NC(=O)COc2ccc([N+](=O)[O-])cc2)s1,·,0,0.4,-2,2%,
O=C(COc1ncnc2ccc(Br)cc12)NCc1ccc2c(c1)OCO2,-6,20,-0.7,-5,-1%,
NN=C(c1cccc([N+](=O)[O-])c1)c1cccc([N+](=O)[O-])c1,·,-8,0.3,·,·,
O=C(O)/C=C/c1cnc2ccccc2c1,·,-7,-0.5,7,3%,
COc1ccc(-n2c(Cc3cccn3C)nnc2SCC(=O)Nc2ccc3c(c2)OCCO3)cc1,-44,-2,4.4,11,5%,Arbovirus anti repeat=9
Cc1ccccc1CN1CCN(C(=O)c2cc(-c3ccncc3)nc3ccccc23)CC1,·,6,6.0,·,·,
Fc1ccc(-n2cc(CNCCc3ccccn3)c(-c3ccccc3Cl)n2)cc1,·,89,0.3,-9,23%,
CN1C(=O)/C(=N\OC(=O)c2cccc3ccccc23)c2ccccc21,-28,15,38*,7,-8%,
O=c1c(-c2ccc(O)cc2)coc2c(C3O[C@H](CO)[C@@H](O)[C@H](O)[C@H]3O)c(O)ccc12 (stereo partly drawn),·,-6,-6.6,·,·,
CCCOc1ccccc1Cn1c(=O)oc2ccccc21,·,-5,2.5,·,·,
NS(=O)(=O)c1ccc(N/C=C/C(=O)c2ccc(Br)cc2)cc1,-24,10,-9.1,11,7%,
CCc1ccc(NC(=O)CSC2=C(C#N)C(c3ccco3)C3=C(CCCC3=O)N2)cc1 (stereo not drawn),1,38,8.9,-17,11%,
COC1=CC(=O)CC(C)C12Oc1cc(OC)cc(OC)c1C2=O (stereo not drawn),·,0,5.6,·,-7%,
O=C(CN1CCOCC1)Nc1ccc(OC(F)(F)F)cc1,·,-5,0.0,·,·,
Cc1c(C)c2ccc(OCC(=O)N[C@@H](Cc3ccccc3)C(=O)O)cc2oc1=O,·,2,3.6,·,·,
O=C(NCc1ccc(Cl)cc1)C1CCCN1C(=O)Nc1ccc(F)cc1 (stereo not drawn),·,-7,-1.0,·,·,
COc1ccc(CN(C)CC(O)COc2ccc(C(=O)c3ccccc3)cc2)c(OC)c1OC (stereo not drawn),·,90,1.2,·,·,
Fc1ccc(CNCc2ccc3c(c2)OCO3)cc1,·,1,0.4,·,·,
Cn1cc(C(=O)CCl)c2ccccc21,·,·,15,-38,1.6µM*,

# More results:
SMILES,YopH inh,Mtb betalactam,RecA intein inh,Arbovirus anti,Mtb growth,others
N#CC1=C2SCC(O)(c3ccccc3)N2C(=O)CC1c1ccccc1F (stereo not drawn),1,1,5.9,-35,-6%,
CNc1nc(Sc2ccccc2)cc(C(F)(F)F)n1,-25,5,0.7,-15,7%,
COc1ccc(/C=N/N=C2/CC(C)(C)Cc3n[nH]c(=O)cc32)cc1,·,3,2.6,5,-1%,
CC(=O)Nc1cccc(/C(C)=N/NS(=O)(=O)c2ccc(C)cc2)c1,·,-5,-0.5,0,2%,
CCCN(CCC)c1cc(Cl)nc(N)n1,·,4,1.1,-1,4%,
CCOC(=O)C1(CCc2ccccc2)CCN(Cc2ccc(NC(C)=O)cc2)CC1,·,-6,0.9,·,·,
CCOc1ccccc1C(=O)N(Cc1cccs1)C1CCS(=O)(=O)C1 (stereo not drawn),-31,-8,0.4,6,0%,
COc1ccc(S(=O)(=O)Nc2nnc(CC(C)(C)C)s2)cc1,·,-5,-0.8,1,4%,
CN1C=CC=C/C1=C1/N=C(c2ccccc2)OC1=O,·,1,-5.9,0,2%,
CCN(Cc1ccncc1)C(=S)Nc1c(C)cccc1C,-10,-3,1.5,8,-5%,
CCOc1ccc2nc(SCC(=O)NC(=O)C(C)C)sc2c1,·,·,1.5,1,4%,
CC(=O)c1sc(NC(=O)c2cc(-c3ccccc3)nn2-c2ccccc2)nc1C,-26,97,-0.5,17,28µM*,
Cc1ccsc1/C=N/NC(=O)C1CC(=O)N(c2ccccc2)C1 (stereo not drawn),-33,2,0.0,-6,0%,
COc1ccc(/C=C/C=C2\NC(=S)NC2=O)cc1,·,0,0.2,-12,-2%,
O=C1Nc2ccccc2C(=O)N2CCCCC12 (stereo not drawn),·,7,-1.0,3,-3%,
COc1ccc(CCN(C)C(=O)Cn2c(=O)oc3ccccc32)cc1OC,·,0,3.6,·,·,
Cc1ccc(C(=O)N2CCN(C(=O)CN3CCOCC3)C2)cc1,-23,-1,-0.3,5,1%,Arbovirus anti repeat=2
CCOC(=O)c1snc(C(=O)NC2CCCCC2)c1N,-33,87,0.6,8,6%,
O=C(Cc1ccccc1)Nn1c(-c2ccccc2)nc2ccccc2c1=O,-30,-3,1.6,13,-3%,
COc1ccc(-c2ccc(NCCC3=CCCCC3)nn2)cc1OC,-9,-7,0.1,-14,1%,
CCOC(=O)/C(C#N)=C\c1cn(C)c2ccccc12,·,2,2.5,-4,-8%,
Cc1ccc(-c2nc3ccccc3c(=O)n2-c2ccncc2)cc1,-20,-2,-4.2,-2,4%,
CSc1ccccc1NC(=O)CN(C)C(=O)c1cccc(S(=O)(=O)N(C)C)c1,·,-7,-0.5,2,9%,
Cc1c(Cl)ccc2c1NC(=O)[C@]21N[C@@H](CCC(N)=O)[C@H]2C(=O)N(c3ccc(F)cc3)C(=O)[C@H]21,-34,-1,2.8,-3,4%,
Cc1ccc(NS(=O)(=O)c2ccc3[nH]c(=O)sc3c2)cc1,·,-8,-2.5,-2,6%,

# (cont.)
SMILES,YopH inh,Mtb betalactam,RecA intein inh,Arbovirus anti,Mtb growth,others
C=CCn1c(SCC(=O)Nc2nnc(CC)s2)nnc1-c1ccncc1,·,-3,-1.0,0,-1%,
Cc1cccc(CC2SC(N)=NC2=O)c1 (stereo not drawn),·,-3,1.6,-5,4%,
Cc1cc(SCc2ccccc2)nc(=O)[nH]1,18,4,1.0,3,-9%,
COC(=O)C1=C(C)N(CCCC(=O)O)C(=O)NC1c1ccc(Br)cc1 (stereo not drawn),·,-4,0.3,·,·,
COc1ccc(CNS(=O)(=O)CCNC(=O)c2ccccc2)cc1,·,-11,1.0,·,·,
CC1CN(C(=O)c2ccc(COc3ccccc3Cl)o2)CC(C)O1 (stereo not drawn),·,-1,1.8,·,·,
CC(=O)NC1CC2CCC(C1)N2 (stereo not drawn),-16,-2,0.0,0,-8%,
COc1cccc(NC(=O)CN(C)C(=O)CN2C(=O)NC3(CCCC3)C2=O)c1,·,-1,-2.0,·,·,
Cc1nn(C)cc1CN(C)C(=O)c1cc(COc2ccc(F)cc2F)on1,·,0,-7.3,4,-2%,
COc1ccc(CNC(=O)CCCn2ccc3cc(S(=O)(=O)N4CCCC4)ccc32)cc1,·,2,0.5,·,·,
Brc1cc2c(cc1/C=N/Nc1nc(N3CCCCC3)nc(N3CCCCC3)n1)OCO2,·,·,·,-9,15%,
O=C(NN=C1CCC(=NNC(=O)c2ccccn2)CC1)c1ccccn1,·,·,·,-15,?,
CC(=O)Nc1cc(C)c2nc(NC(C)=O)sc2c1,·,-3,-0.4,·,-2%,
COc1cc2[nH]c(C(=O)N(C)Cc3ccccc3)cc2c(OC)c1OC,·,-2,-0.3,·,·,
CCCSC(=S)c1c(C)[nH]n(-c2ccccc2)c1=O,·,64,10.0,·,35%,
CC(NC(=O)CSc1nc2c(cc1C#N)CN(C)CC2)c1ccccc1 (stereo not drawn),-25,-2,·,-12,-6%,
Nc1ccc(Nc2nc(-c3cc4ccccc4oc3=O)cs2)cc1,·,-2,·,-3,-8%,
Nc1ccc(S(=O)(=O)Nc2nccc(/C=C/c3ccc([N+](=O)[O-])cc3)n2)cc1,·,15,3.6,·,·,
N/C(=N\OC(=O)Cc1ccccc1)c1ccncc1,·,4,0.2,-3,-5%,
COc1ccc(-n2c3c(cc(C#N)c2=O)C(=O)CCC3)cc1,·,-1,-2.7,-1,2%,
Cc1ccc(S(=O)(=O)N2CCC(=O)N(C(COCc3ccc(C(F)(F)F)cc3)C(C)C)CC2)cc1 (stereo not drawn),-10,4,11,-28,3%,
CCN1CCN(S(=O)(=O)c2c(C)cc(C)cc2C)CC1,·,-17,-0.6,·,·,
CCn1c(SCC(=O)N(C)C2CCS(=O)(=O)C2)nnc1-c1ccccc1 (stereo not drawn),·,6,-1.3,9,5%,
COc1ccc(Nc2ncc(C(=O)N3CCC4(CC3)OCCO4)c3ccccc23)cc1,-23,-5,-1.6,3,0%,
CC1(C)CC(=O)C(/C=N/n2c(C(F)(F)F)nc3ccccc3c2=O)=C(O)C1,-16,5,1.5,4,13%,
COc1ccc(COC(=O)N/N=C(\C)CC(=O)Nc2ccc(Cl)cc2)cc1,-29,10,13,-19,7%,
